Source: PubChem BioAssay (National Center for Advancing Translational Sciences (NCATS))
TRPML1 ag = qHTS for Agonists of the Human Mucolipin Transient Receptor Potential 1 (TRPML1). AID 624414, 2012. TRPML1-expressing cells, Ca2+ dye fluorescence, FDSS; host cell line not named in the record; reference of the full effect not given here. 0.12% of 410,000 active. Mucolipin-1 (Homo sapiens), Q9GZU1. activation, % (concentration not given with the values); in the data active = activation above about 50%; inconclusive = about 30% to 50%; inactive = below about 30%; further: 0% is about no effect; the text of the record puts the active cut at 80%
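TRPML1-DL cells, Tet-induced overnight (~16 h, 37 degrees C), loaded 45-90 min at room temperature with Ca8 no-wash calcium dye plus quencher. FDSS fluorescence: 10 s baseline, compound pin-transfer, 110 s agonist read, then EC80 54-4 (4uM final) and 110 s antagonist read.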
TRPML1 blocker = qHTS for Inhibitors of the Human Mucolipin Transient Receptor Potential 1 (TRPML1); Mucolipin-1 (Homo sapiens), Q9GZU1; TRPML1-inducible cells, Ca2+ dye fluorescence, FDSS; active compounds read low; inhibition of EC80 agonist-evoked calcium signal; activity change, negative = inhibition, % (no concentration beside the values); 0.02% of 390,000 active; AID 624415, 2012; in the data active means activity change below about -50%; inconclusive means about -30% to -50%; inactive means above about -30%;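 further: stimulus is agonist 54-4 at its EC80 concentration; on the % scale 0 is the no-effect control and ±100 the full control effect; compound concentration not given in the record; the text of the record puts the active cut at -80%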
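TRPML1-DL cells, Tet-induced overnight (~16 h, 37 °C) at 1,500 cells/well, were loaded with Ca8 no-wash dye plus quencher for 45-90 min at room temperature. Compounds were pinned during FDSS kinetic reading; agonist 54-4 at EC80 (4 uM final) then added.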
TRPV1 PAM = HTS Assay for Compounds that Act as Potentiators of the Vanilloid Receptor 1. potentiation, % at 8.33 µM. TRPV1-expressing cells, Fluo-8 calcium influx, capsaicin EC20 potentiation; host cell line not named in the record; control for the full effect not named in the record. AID 540277, 2011. 0.02% of 320,000 active. Transient receptor potential cation channel subfamily V member 1 (Homo sapiens), Q8NER1; active means potentiation above 80%; inconclusive means 30% to 80%; inactive means below 30%; further: 0% is about no effect
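Cells expressing TRPV1 were dye-loaded with Fluo-8 and read kinetically: 10 s baseline, 3 min after compound (agonist portion), then 2 min after EC20 capsaicin (allosteric enhancer portion). Calcium-bound dye fluorescence at 480/520 nm.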
Six1-Eya2 blk = qHTS Assay for Inhibitors of the Six1/Eya2 Interaction; Homeobox protein SIX1 (Homo sapiens) + Protein phosphatase EYA2 (Homo sapiens), …; 0.56% of 360,000 active; AlphaScreen GST-Six1/His-Eya2 binding, biochemical; active compounds read low; control for the full effect not named in the record; AID 651725, 2012; activity change, % (concentration not given with the values); in the data active = activity change below about -65%; inconclusive = about -30% to -65%; inactive = above about -30%; further: on the % scale 0 is the no-effect control and ±100 the full control effect
Target sequence (O00167 whole entry, looked up): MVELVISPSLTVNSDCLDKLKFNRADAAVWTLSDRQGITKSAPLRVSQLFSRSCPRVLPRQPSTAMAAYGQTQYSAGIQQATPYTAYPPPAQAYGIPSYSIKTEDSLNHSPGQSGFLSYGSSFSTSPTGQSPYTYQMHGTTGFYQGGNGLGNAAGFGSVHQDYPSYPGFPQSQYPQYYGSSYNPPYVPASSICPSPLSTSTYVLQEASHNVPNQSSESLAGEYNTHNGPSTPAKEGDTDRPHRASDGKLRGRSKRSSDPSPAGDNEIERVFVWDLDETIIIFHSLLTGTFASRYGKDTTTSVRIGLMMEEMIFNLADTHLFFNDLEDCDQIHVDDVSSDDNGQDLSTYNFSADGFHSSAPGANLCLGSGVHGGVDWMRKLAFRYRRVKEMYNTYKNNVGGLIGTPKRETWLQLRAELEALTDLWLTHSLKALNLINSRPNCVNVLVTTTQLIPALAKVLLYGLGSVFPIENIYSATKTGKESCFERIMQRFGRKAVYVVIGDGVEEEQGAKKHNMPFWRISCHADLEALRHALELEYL
Target sequence (Q15475 whole entry, looked up): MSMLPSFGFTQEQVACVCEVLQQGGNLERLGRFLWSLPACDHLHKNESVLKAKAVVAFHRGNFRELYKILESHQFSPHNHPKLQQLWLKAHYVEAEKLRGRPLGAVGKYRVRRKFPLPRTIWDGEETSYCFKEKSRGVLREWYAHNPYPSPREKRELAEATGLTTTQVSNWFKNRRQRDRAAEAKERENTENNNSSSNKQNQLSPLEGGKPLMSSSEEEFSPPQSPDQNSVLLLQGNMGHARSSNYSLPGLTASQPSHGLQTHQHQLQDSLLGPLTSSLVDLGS
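Homogeneous AlphaScreen proximity assay pairing GST-Six1 with His-tagged Eya2 (added as 5X mix: 250 nM and 500 nM) in 50 mM Tris pH 8.0, 300 mM NaCl, 1 mM TCEP. Glutathione donor and nickel acceptor beads; 1 h, 37 °C, dark.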
D2 PAM = Beta-Arrestin HTS for Positive Allosteric Modulators of the Human D2 Dopamine Receptor: Potentiators | D(2) dopamine receptor (Homo sapiens), P14416 | DiscoveRx D2 beta-arrestin cells, luminescence, 90 min; 100% = 57 uM dopamine signal | potentiation, % (no concentration beside the values) | 0.23% of 360,000 active; active = potentiation of 50% or more; inconclusive = 30% to 50%; inactive = 30% or less;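 further: compound concentration not given in the record; tested on top of an EC20 dose of dopamine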
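D2 cells co-treated with compound plus 50 nM dopamine (EC20) for 90 min at 37 deg C to detect potentiation. Beta-arrestin recruitment was read as enzyme-fragment luminescence after 1 h at ambient temperature. Full response was set by 57 uM dopamine.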
CtBP-E1A blk = qHTS Assay for Inhibitors of the CtBP/E1A Interaction | 0.49% of 340,000 active | activity change, % (test concentration not listed) | AlphaScreen GST-E1A/His-CtBP binding, 1536-well; active compounds read low; control for the full effect not named in the record | CtBP / adenovirus E1A interaction (AlphaScreen); in the data active means activity change below about -65%; inconclusive means about -30% to -65%; inactive means above about -30%; further: on the % scale 0 is the no-effect control and ±100 the full control effect
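Steps: dispense buffer (Tris pH 8.0, NaCl 300 mM, TCEP 1 mM, BSA, Tween 20); add 5X protein mix (GST-E1A, His-CtBP, 125 nM each); pin 23 nL compound; 2 h at 37 °C, dark; add 5X beads (50 ug/mL); 1 h; read.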
Active calls of the source: *; ? = inconclusive; . = not tested or not shown. The order is random (roughly 0.95% active in at least one column).

Structure	TRPV1 PAM	D2 PAM	Six1-Eya2 blk	TRPML1 blocker	CtBP-E1A blk	TRPML1 ag
O=C(Nc1ccccc1)c1nc[nH]c1C(=O)NCCCCNC(=O)c1[nH]cnc1C(=O)Nc1ccccc1	.	-11	3	-6	2	-0.9
CCOc1ccc(S(=O)(=O)N2CCCCC2)cc1NC(=O)Cc1ccsc1	-6	3	-3	45	10	7.6
C[C@H]1CN([C@@H](C)CO)C(=O)Cc2cc(NC(=O)CCC(F)(F)F)ccc2O[C@H]1CN(C)S(=O)(=O)c1ccc(F)cc1	.	-5	-2	-5	1	0.4
CC(C)CCNC(=O)CN(C(=O)Cn1nnc(-c2ccccc2F)n1)c1cccc2c1CCCC2	.	-11	1	-20	5	0.3
CC(C)(C)c1ccc(OCC(=O)O/N=C(\N)c2ccncc2)cc1	.	2	11	17	14	1.9
COc1ccc(NC(=S)NCc2cccs2)c(OC)c1	-5	1	4	-5	8	0.1
N#Cc1c(Oc2ccc3ccccc3c2)sc(C(=O)c2ccccc2)c1N	4	13	-1	-6	1	-0.8
Cc1ccc(C(=O)Nc2ccc3c(c2)C(=O)N(CC2CCCO2)C3=O)cc1 (stereo not given)	-7	-6	10	7	7	-0.7
COc1cc(OC)cc(C(=O)NCC2CCCN(Cc3ccc(SC)cc3)C2)c1 (stereo not given)	-1	-29	-9	-4	-10	-0.4
CCOC(=O)c1c(S(=O)(=O)NCC(=O)Nc2cccc(C)c2C)c(C)n(C)c1C	1	-4	-2	54	-17	-0.7
Cc1cccc(NC(=O)COC(=O)c2cc3ccccc3oc2=O)c1	3	-4	4	5	-3	0.3
CCOc1cc(C(=O)OCC(=O)N(C)c2ccccc2)cc(OCC)c1OCC	-2	4	9	4	4	0.0
Cc1ccc(C)c(N2CCN(S(=O)(=O)c3c(C(=O)N4CCCCC4)c(C)n(C)c3C)CC2)c1	-9	-3	-11	-13	-7	20
CCn1nnc(NC(=O)COc2ccc(C3CCCCC3)cc2)n1	8	-7	0	13	-1	1.9
Cc1cc(=O)n2nc(N3CCCC(C(=O)NCc4ccccc4C)C3)sc2n1 (stereo not given)	8	-4	-11	-5	-10	-0.3
CC(=O)C1=CCC(c2ccccc2F)N(S(=O)(=O)c2ccc(C)cc2)C1 (stereo not given)	.	-7	0	13	6	0.1
CCC1CCCCN1C(=O)CSc1nc2c(c(=O)n(C)c(=O)n2C)n1C (stereo not given)	-2	6	17	-24	4	0.0
CC1CC(C)CN(S(=O)(=O)c2ccc(C(=O)N(C)Cc3ccccc3)cc2)C1 (stereo not given)	.	2	8	-2	.	0.2
Cc1ccccc1S(=O)(=O)N(C)C[C@@H]1OCc2ccccc2-c2c(n(C)c3ccccc23)C(=O)N([C@H](C)CO)C[C@@H]1C	.	29	-6	-1	3	3.1
Cc1[nH]c(=O)[nH]c(=O)c1C=CC(=O)NC(CO)CS(=O)Cc1ccccc1 (stereo not given)	.	-10	3	4	-14	0.7
CCc1cc2c(cc3c(=O)n(CC(=O)N4CCN(C)CC4)ncn32)s1	23	-7	6	10	-2	0.0
CCn1c(CNC(=O)COc2c(C)cccc2C)nnc1SCC(=O)Nc1nccs1	2	-13	14	3	32	1.1
CC(=O)Nc1ccc(NC(=O)CCCNC(=O)c2ccc(Cl)cc2)cc1	6	-2	16	-19	2	0.1
O=C(CCOc1ccccc1)Nc1ccc(S(=O)(=O)Nc2ncccn2)cc1	7	7	-10	-10	.	0.1
O=C(NCc1ccccn1)c1cccn1-c1ncc(C(F)(F)F)cc1Cl	?	-18	-17	8	-24	-0.2
COc1ccc(C(=O)NCC(=O)NCC(=O)OCc2ccc(Cl)cc2)cc1	-8	-3	5	25	.	-0.2
CCOc1cc(N2CCOCC2)c(OCC)cc1NC(=O)c1c(C)noc1C	-4	-8	-5	-1	0	-0.3
O=C(NCc1cn2ccsc2n1)c1c(F)cccc1Cl	12	-4	9	38	2	-0.1
CCC(C)Sc1nnc(CNC(=O)C23CC4CC(CC(C4)C2)C3)n1C1CCCCC1 (stereo not given)	-1	-12	12	1	2	0.2
O=S(=O)(c1ccc(Oc2ccc(S(=O)(=O)N(CCO)CCO)cc2)cc1)N(CCO)CCO	?	-2	-4	2	.	0.7

(more compounds)
Structure	TRPV1 PAM	D2 PAM	Six1-Eya2 blk	TRPML1 blocker	CtBP-E1A blk	TRPML1 ag
COc1ccccc1NC(=O)CN1CCN(CC(=O)Nc2ccc(F)cc2F)CC1	-23	-2	14	57	-5	1.0
COc1ccc(C(c2c(C)n(C)n(-c3ccccc3)c2=O)c2c(C)n(C)n(-c3ccccc3)c2=O)cc1O	0	.	.	2	.	1.5
CCC(=O)N1CCN(c2ccc(NC(=O)c3ccc(N4CCCC4)c([N+](=O)[O-])c3)cc2)CC1	0	-11	-5	33	10	1.0
CC1(c2nnnn2-c2ccc3c(c2)OCCO3)CCC(=O)N1C1CC1 (stereo not given)	.	.	7	.	6	-0.1
Cc1cc(C)n2nc(C(=O)OCC(=O)N3C(C)CCCC3C)nc2n1 (stereo not given)	0	-1	-5	19	2	-0.8
Cn1c(/C(C#N)=C(\O)c2cc(Cl)sc2Cl)nc2ccccc21	?	-14	-1	-16	-12	0.2
O=C(c1c[nH]c(C(=O)N2CCN(Cc3ccccc3)CC2)c1)C1CCCCC1	-8	-3	-7	-4	0	0.3
COC(=O)c1ccc(Oc2nc(N3CCCCC3)nc(N3CCOCC3)n2)cc1	-4	2	1	3	6	0.4
Cc1ccc(C(=O)N2CCCC(Nc3ccc(C(C)C)cc3)C2)cn1 (stereo not given)	-15	-4	-1	8	-1	0.1
Cc1cccc(NC(=O)COC(=O)CNC(=O)C2CCCCC2)c1	8	6	4	8	5	-0.4
O=C(COC(=O)[C@H](Cc1ccccc1)NC(=O)c1cccs1)Nc1ccccc1C(F)(F)F	-16	-5	5	1	2	-0.7
CN(C)Cc1cccc(-c2ccccc2)c1O	.	-9	3	2	-10	1.6
CCC(=O)c1cn(CC(=O)Nc2cccc(C)c2C)c2ccccc12	-6	-11	6	6	-5	1.5
Cn1c(SCc2cccc(C(F)(F)F)c2)nnc1-c1ccco1	5	-5	-1	-20	3	0.8
Cc1ccc(NN2C(=O)C=C(c3ccccc3)C2=O)cc1	-6	-29	3	?	-1	0.7
COc1ccc2cc(C3=CC(=O)CCC3)ccc2c1	.	-17	1	5	1	-0.5
Cc1cc(NCc2ccccc2)n2ncc(-c3ccccc3)c2n1	-10	12	20	21	46	-0.4
CC(C)CC1NC(=O)N(CC(=O)N2CCN(S(=O)(=O)c3ccc4ccccc4c3)CC2)C1=O (stereo not given)	4	4	6	0	-5	-0.4
CS(=O)(=O)N1CCN(c2ncccn2)CC1	-3	15	2	-11	5	0.1
CCN1C(=O)[C@H]2[C@@H](c3ccc(OC)cc3)N3C(=O)CN(Cc4ccccc4)C(=O)[C@@]3(C)[C@H]2C1=O	27	2	-2	-3	9	-0.5
Cc1ccc(-c2nc3c4ccccc4ccn3c2CN2CCCCC2)cc1	-13	-23	-5	36	-11	3.6
Cc1ccc(S(=O)(=O)NCCN=C(CN2CCOCC2)NS(=O)(=O)c2ccc(C)cc2)cc1	8	-7	1	-4	7	-0.6
CC(=O)Nc1ccc(OCC(=O)c2cc(C)ccc2C)cc1	-1	-5	3	25	-2	5.1
Cc1ccc(NC(=O)CNCC(c2ccccc2)N(C)C)cc1F (stereo not given)	-5	-22	-4	.	-3	.
O=C(COc1ccc([N+](=O)[O-])cc1)NCc1cccnc1	-1	-14	-3	-3	-5	-0.8
N#Cc1ccccc1OCC(=O)N1CCN(S(=O)(=O)c2ccc(Cl)cc2)CC1	-45	-11	5	8	.	0.7
CCCCCc1cc(=O)oc2c(C(CCN3CCCCC3)c3cc(OC)c(OC)c(OC)c3)c(OC)cc(OC)c12 (stereo not given)	-37	-27	-10	3	.	0.3
COC(=O)c1n[nH]nc1-c1ccccc1	7	-15	-2	-12	3	-0.5
O=C(Nc1cccnc1)c1ccc(Cl)c(S(=O)(=O)N2CCCC2)c1	-20	-12	-2	-3	-5	-0.4
O=C(COc1ccc(Cl)cc1)NCCCNC(=O)c1ccncc1	1	-13	-4	26	-19	-1.2

Later entries:
Structure	TRPV1 PAM	D2 PAM	Six1-Eya2 blk	TRPML1 blocker	CtBP-E1A blk	TRPML1 ag
COC(=O)c1cc(C(=O)Nc2nnc(CC(C)C)s2)cc([N+](=O)[O-])c1	25	7	3	39	-7	-0.3
O=C1NC(Nc2ccccn2)(C(F)(F)F)C(=O)N1c1ccc(F)cc1 (stereo not given)	-1	-8	1	-6	-9	7.8
Cc1c(Br)cc(C(=O)NC2CCCCC2)c(C)c1C	-8	-2	7	-4	11	14
O=C(COc1ccc2c(c1)OCO2)Nc1ccccc1C(F)(F)F	5	-3	-1	4	0	-0.8
CCCCn1c(S(=O)(=O)O)nc2ccccc21	7	2	4	7	6	0.4
C[C@@H]1CCCCO[C@@H](CN(C)S(=O)(=O)c2ccccc2)[C@@H](C)CN([C@H](C)CO)C(=O)c2cc(N(C)C)ccc2O1	.	-3	-3	-3	-17	-0.5
N#CCCn1cc(C(=O)Nc2ccc(C(=O)O)cc2)c(-c2ccc([N+](=O)[O-])cc2)n1	2	-3	0	11	-2	0.6
CN(C)c1ccc(C2N(C(=O)N3CCOCC3)CCN2S(=O)(=O)c2ccccc2)cc1 (stereo not given)	-12	-13	0	4	-2	-0.3
c1ccc(-c2cnnn2-c2ccccc2)cc1	14	-6	1	2	8	-0.4
CC1(NC(=O)Cc2ccc(S(=O)(=O)N3CCOCC3)s2)CCS(=O)(=O)C1 (stereo not given)	12	-9	0	-6	12	-0.8
Cc1ccc(-c2csc3nnc(SCC(=O)N4CCN(Cc5ccccc5)CC4)n23)cc1	-15	-24	-6	7	5	-0.1
COc1ccccc1NC(=S)NCC1CCCO1 (stereo not given)	-1	1	4	-9	-21	0.6
CNCC(O)c1ccc(O)c(O)c1 (stereo not given)	-5	-7	3	-12	4	0.2

Two entries from above, as labelled records:
N#CCCn1cc(C(=O)Nc2ccc(C(=O)O)cc2)c(-c2ccc([N+](=O)[O-])cc2)n1
  TRPV1 PAM: 2; D2 PAM: -3; Six1-Eya2 blk: 0; TRPML1 blocker: 11; CtBP-E1A blk: -2; TRPML1 ag: 0.6
COc1ccccc1NC(=S)NCC1CCCO1 (stereo not given)
  TRPV1 PAM: -1; D2 PAM: 1; Six1-Eya2 blk: 4; TRPML1 blocker: -9; CtBP-E1A blk: -21; TRPML1 ag: 0.6
